# MgrA DNA FP – S. aureus MgrA activity modulators, primary screen, biochemical, S. aureus Newman, fluorescence polarization; MgrA-DNA binding; inhibition, %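 (about 10 µg/mL by stock and volumes)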; AID 602314, 2012; 84,000 compounds, 0.13% hits;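 active = above 50% in either of two replicates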;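 note: 0% = protein plus DNA without compound and 100% = DNA alone without protein; higher means less MgrA bound to DNA so lower polarization; one replicate is shown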
# S aureus helic – inhibitors of S. aureus replicative helicase, primary screen, biochemical, fluorescence unwinding readout. replicative DNA helicase (DnaC/DnaB), Staphylococcus aureus. purified S. aureus helicase, fluorescence unwinding assay; about half of the hits fall short of the stated cut. inhibition, %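 (tested at about 80 µM)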. 120,000 compounds, 0.05% hits;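 active = both duplicates at 50% or more, or one of them with a favoured structure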;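 note: 0% = mean of negative control wells and 100% = mean of positive control wells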
# * marks the source's active call; other numbers are inactive results; · = no result given; & = joins results of further samples. These rows are one share of the data (hit frequency here may not be typical).
SMILES,MgrA DNA FP,S aureus helic
Cc1ccc(S(=O)(=O)N2CCCC(C(=O)N3CCCc4ccccc43)C2)cc1 (stereo unspecified),·,-10
C=CCn1c(SCC(=O)NCCCO)nc2sc3c(c2c1=O)CCCC3,-1.8,·
Cc1cc2ncc(-c3ccccc3)nc2cc1C,·,-16&6
CCOC(=O)c1cc2ccccc2cc1O,-0.5,18
COc1ccc(-c2nc(SC(CC(=O)NCc3ccco3)c3cc(OC)c(OC)c(OC)c3)n[nH]2)cc1 (stereo unspecified),·,8
O=C1CSC(=O)N1c1ccccc1,·,0
CCOC(=O)c1cc2c(c(CSc3ccc(Cl)cc3)c1)OCOC2,-0.8,·
CC(C)(C)n1ncc2c(=O)n(CC(=O)OCc3ccccc3)cnc21,1.0,14
COc1ccc2cc3cc(C(=O)NCCN4CCN(c5ccccc5F)CC4)sc3nc2c1,-1.4,11
O=C(Cc1cccs1)NCCOc1ccccc1F,·,6
O=C(CCC1CCCC1)N1CCN(Cc2c[nH]c3ccccc23)CC1,·,3
C#Cc1cccc(NCN2C(=O)c3ccccc3C2=O)c1,1.9,·

# Four entries from above, with values under each structure.
# Screens in order: MgrA DNA FP, S aureus helic
> Cc1cc2ncc(-c3ccccc3)nc2cc1C
    ·, -16&6
> O=C1CSC(=O)N1c1ccccc1
    ·, 0
> COc1ccc(-c2nc(SC(CC(=O)NCc3ccco3)c3cc(OC)c(OC)c(OC)c3)n[nH]2)cc1 (stereo unspecified)
    ·, 8
> Cc1ccc(S(=O)(=O)N2CCCC(C(=O)N3CCCc4ccccc43)C2)cc1 (stereo unspecified)
    ·, -10

# Additional results
SMILES,MgrA DNA FP,S aureus helic
CC(=NCc1ccccc1)c1c(C)cc(C)cc1O,1.5,·
CC(=O)N1c2ccc(S(=O)(=O)N(C)CC(=O)Nc3cccc(C)c3)cc2CC1C (stereo unspecified),·,-21
CC(=O)Oc1ccc2oc(-c3ccccc3)c(C(N)=O)c2c1,·,11
CC1=CC(C)C(CNc2ccccc2)C(C)C1 (stereo unspecified),·,-14
O=S(=O)(NCc1ccco1)c1ccc(S(=O)(=O)N2CCCCC2)cc1,-0.2,0
N#Cc1c(=O)c2cccnc2n2c1sc1ccccc12,·,-29
Cc1ccc(S(=O)(=O)N(C)CC(=O)OCc2nc3ccccc3s2)cc1,·,-10
CN(C)CCNc1nc(-c2noc(NCCN(C)C)n2)no1,-8.8,6
CC12CCCCC1N(CC(N)=O)c1ccccc12 (stereo unspecified),-1.5,7
CC(c1ccccc1)n1c(C2CC(=O)N(c3ccccc3)C2)nc2ccccc21 (stereo unspecified),·,13
CSc1ccc(/C=C2\SC(=O)N(CCNC(=O)CSCc3c(C)noc3C)C2=O)cc1,·,25
CC1CCC(C(C)C)C(OCC(O)CN2CCc3ccccc3C2)C1 (stereo unspecified),-0.4,1
NC(=O)C1CCN(C(=S)NC2CC3C=CC2C3)CC1 (stereo unspecified),-0.9,·
Cc1nc2c(c(=O)c3ccccc3n2C)c(=O)n1Cc1ccco1,·,3
Cc1onc(C(C)C)c1C(=O)O,-2.2,3
O=c1c2c(-c3cccs3)csc2ncn1-c1ccccc1,-2.5,0
CC1=C(C#N)C(c2ccccc2)C2=C(CC(C)(C)CC2=O)N1 (stereo unspecified),0.1,·
CCN(c1ccccc1)S(=O)(=O)c1ccc(N(C)C2CCCCC2)nc1,·,18
Cc1cc(CNS(=O)(=O)c2ccc(N3CCOCC3)nc2)c(C(F)(F)F)o1,·,20
CCc1nc2cc(CC(=O)O)ccc2o1,-6.0,·
C#CCOc1cccc(C=Nn2cnnc2)c1,-1.4,15
CCC(=O)N1c2ccc(S(=O)(=O)CCC(=O)Nc3ccccc3OC)cc2CC1C (stereo unspecified),·,-26
C(=C\c1ccccc1)/CSc1nnc(COc2ccccc2)n1Cc1ccco1,3.0,8
CC(C)N(C(=O)NC(=O)c1ccc(F)cc1F)C(C)C,-0.8,·
CN1CCc2nc(NC(=O)c3ccc(S(=O)(=O)N(C)C)cc3)sc2C1,·,17
COc1ccc(-c2csc(NC(=O)c3ccc(C#N)cc3)n2)cc1,·,15
COc1ccc(N2C(=O)c3c(c4ccccc4n3C)C2c2cccc(OC)c2)cc1 (stereo unspecified),1.9,4
CC(=O)Nc1nc(-c2cccs2)cs1,2.2,5
CC1Cc2cc(S(N)(=O)=O)ccc2N1Cc1cc(Cl)cc2c1OCOC2 (stereo unspecified),·,-10
COc1cc2c(NC(C)=O)c(CN(C)C)oc2c(Cl)c1Cl,-1.0,10
Cc1ccc2cc(CN(CCN3CCCC3)C(=O)NC3CCCCC3)c(=O)[nH]c2c1C,-2.0,18
Oc1cccc(-c2nc(=S)c3c([nH]2)Oc2ccccc2C3)c1,·,-4
O=C(c1ccc(Nc2nc(-c3ccccc3)c3cc(Br)ccc3n2)cc1)N1CCOCC1,-3.0,1
O=C(CN1CCOCC1)N/N=C/c1ccccc1,·,-17
C=CCc1ccccc1OCC(O)CN1CCN(Cc2ccc3c(c2)OCO3)CC1 (stereo unspecified),·,24
Cc1noc(C)c1C(=O)c1c(C)[nH]n(-c2ccccc2)c1=O,·,17
C=CCNS(=O)(=O)c1ccccc1,·,-16
CC1(C)CC(=O)C=C(NCCc2ccccc2)C1,2.6,-4
COCc1ccc(C(=O)NCc2ccncc2)cc1,-1.0,2
Cn1c(CCC(=O)O)nc2ccccc2c1=O,·,-2
COc1cccc(-c2c3c([nH]c(=O)c2C#N)CCc2cc(OC)ccc2-3)c1,-0.7,·
O=S(=O)(c1ccc(-c2ccccc2)cc1)N1CCCC1,-1.2,26
COc1ccc2c(O)c(-c3ccccc3)c(=O)[nH]c2c1,-1.9,·
CC(NC1CCCc2ccccc21)C(=O)NCc1ccc2c(c1)OCO2 (stereo unspecified),·,4
CCOc1ccc(-c2nnc(OC)c3ccccc23)cc1,·,-1
CCOC(=O)/C(=C\c1ccsc1)C1=Nn2c(nnc2-c2ccc(OC)cc2)SC1,·,2
CCC(=O)N/C=C/n1cnc2cc(C(F)(F)F)ccc21,2.4,17
O=C(O)c1ccccc1C(=O)NCC(O)c1ccccc1 (stereo unspecified),·,-2
CC(C)c1ccc(C=Nc2ccc(C(=O)O)cc2)cc1,-0.7,·
C=CCn1c(COc2ccc(OC)cc2)n[nH]c1=S,1.7,15
CCCn1c(NC(=O)CCC2CCCC2)nc2ccccc21,·,20
O=S(=O)(Cc1ccccc1)N1CCn2c(nc3ccccc32)C1,-1.6,7
O=C(O)C1CCCN(c2c(-c3ccccc3)c3cc(Cl)ccc3[nH]c2=O)C1 (stereo unspecified),1.5,-3
COc1ccc(Br)cc1CN1CCN(C(=O)c2cccc(OC)c2OC)CC1,-2.2,5
O=C(CNc1ccc2c(c1)OCCCO2)c1cc2cc(Cl)ccc2o1,1.9,·
O=C(Nc1nc2ccccc2s1)C1CC1,-0.9,7
O=C(COC(=O)c1sc2ccccc2c1Cl)NCc1ccccc1,2.6,-30
CC(C)Sc1n[nH]c(=O)n1C(C)C,-2.2,·
Cc1noc(C)c1COc1ccc(C(=O)NCc2cccnc2)cc1,·,19
C=CCc1ccccc1OCC(O)CN1CCNCC1 (stereo unspecified),-0.2,-8
# Continuation:
SMILES,MgrA DNA FP,S aureus helic
CCOC(=O)c1sc(NC(=O)Cn2nc(C(F)(F)F)cc2C)c(C(=O)OCC)c1C,2.9,·
Cc1nc(-c2ccccn2)[nH]c(=O)c1CC1CC1,0.6,·
O=C(Nc1cccc(C(F)(F)F)c1)c1ccc2ncccc2c1,-1.6,·
CC(=O)N(C(C)=O)c1c(N2CCOCC2)c2ccccc2oc1=O,-1.0,11
O=C(Cc1cccs1)Nc1cccc(C(=O)O)c1,·,13
O=C(COc1ccccc1)Nc1nnc(-c2ccc(F)cc2)s1,·,15
COc1ccc(C2CC(c3ccc([N+](=O)[O-])cc3)=NN2C(=O)c2ccccc2)cc1OC (stereo unspecified),-1.2,·
CC1(C)Cc2c(sc3ncn4nc(-c5ccccc5O)nc4c23)C(C)(C)N1,1.7,·
CN(Cc1ccccc1)S(=O)(=O)c1ccc2[nH]c(=O)c(=O)[nH]c2c1,·,15
COc1ccc(C2(C(=O)O)CCCC2)cc1OC,1.0,8
COC(=O)COc1ccc(NC(=O)c2ccccc2C)cc1,5.0,2
CCn1nc(C)c(CCNC(=O)NCCc2ccccc2)c1C,·,1

# Seven compounds already listed, sorted by molar mass, low to high:
SMILES,MgrA DNA FP,S aureus helic
O=C(Cc1cccs1)Nc1cccc(C(=O)O)c1,·,13
COC(=O)COc1ccc(NC(=O)c2ccccc2C)cc1,5.0,2
CCn1nc(C)c(CCNC(=O)NCCc2ccccc2)c1C,·,1
O=C(COc1ccccc1)Nc1nnc(-c2ccc(F)cc2)s1,·,15
CC(=O)N(C(C)=O)c1c(N2CCOCC2)c2ccccc2oc1=O,-1.0,11
CN(Cc1ccccc1)S(=O)(=O)c1ccc2[nH]c(=O)c(=O)[nH]c2c1,·,15
CC1(C)Cc2c(sc3ncn4nc(-c5ccccc5O)nc4c23)C(C)(C)N1,1.7,·

# New compounds follow
SMILES,MgrA DNA FP,S aureus helic
O=C(NCCSCc1ccco1)Nc1ccccc1,-3.2,·
COc1ccc(N(CC(=O)N2CCc3ccccc32)S(=O)(=O)c2c(C)nn(C)c2C)cc1,·,14
CC(C)(C)c1cc(Sc2nc(N3CCOCC3)nc(N3CCOCC3)n2)cc(C(C)(C)C)c1O,4.0,16
CCOc1cc(/C=C2/SC(=S)NC2=O)cc(Br)c1O,·,-178
COc1sc(/C=N/O)cc1Br,0.9,·
COc1cccc(OC)c1C(=O)N1CCCN(c2nc3ccc(Cl)cc3s2)CC1,-5.1,·
COc1ccccc1-n1c(C)nc2cc(C(=O)O)ccc21,0.0,-8
COC(=O)c1ccc(CSc2nnc(Cc3cccs3)n2C2CCCCC2)o1,·,4
CN(Cc1ccccc1)C(=O)CN1CCN(Cc2ccc(Cl)cc2)C1=O,·,18
CC1CCN(c2nnc(-c3cccs3)c3ccccc23)CC1,2.2,9
Cc1nnc(NC(=O)CCc2c[nH]c3ccccc23)o1,·,14
Cc1ccc(C(=O)NC(=O)c2ccccc2O)cc1,-0.2,·
c1ccc(C2=NNC(=NCC3CCCO3)SC2)cc1 (stereo unspecified),·,-23
O=C(NCc1ccc(F)cc1)c1cc(-c2ccccc2)n[nH]1,·,-35
CCOC(=O)C(C)n1cnc2c(nnn2Cc2ccc(Cl)cc2)c1=O (stereo unspecified),·,-5
FC(F)Oc1ccc(NC(=S)NNc2nc3ccccc3o2)cc1,·,6
N#C/C(=C\c1ccc(O)c(O)c1)C(=O)NCc1ccccc1,-1.8,·
Cc1ccc2cc(CCNC(=O)CCCc3ccccc3)c(=O)[nH]c2c1,·,-20
CC(C)[C@H](NC(=O)c1ccccc1)C(=O)Nc1ccc(N2CCOCC2)cc1,·,2
CC1(C)CC(NCc2ccncc2)CC(C)(C)N1,-0.1,12
COc1ccc(C(=O)N=c2sc3ccccc3n2C)cc1OC,·,-1
O=C(Nc1ccnn1C1CCCC1)c1ccc(OC(F)F)cc1,·,-2
Cc1cc(C(=O)CCC(=O)N(C)Cc2c(C)nn(-c3ccccc3)c2C)c(C)s1,·,-33
Cc1sc2ncn(CC(=O)OC3CCCCC3)c(=O)c2c1C,4.5,11
CCCC(C)C(=O)Nc1cccc(Br)c1 (stereo unspecified),-1.8,0
Cc1cc(C)nc(/N=C(/NC(=O)C(C)(C)C)Nc2ccccc2)n1,·,25
COCCCNC1=C(C#N)C(=O)NC(c2cccs2)S1 (stereo unspecified),·,-17
CN(C)c1cccc(C(=O)OCC(=O)C23CC4CC(CC(C4)C2)C3)c1,·,3
NC(=O)c1cc(OCC(F)(F)F)ccc1OCC(F)(F)F,-3.1,·
CCC(=O)N(c1nnc(SCC(=O)N2CCCc3ccccc32)s1)C1CC1,·,12
Cc1ccc(NC(=O)NC2CCN(C(=O)N3CCOCC3)CC2)cc1,0.6,7
NC(=O)C1CCN(CC2CC=CCC2)CC1 (stereo unspecified),-3.6,16
C=CCn1cc(/C=C2/NC(=O)N(c3ccccc3)C2=O)c2ccccc21,1.4,-1
CCOc1ccc(NC(=O)C2CCN(C(=O)c3ccccc3)CC2)cc1,-1.5,-1
CSc1sc(C(=O)NC(=O)Nc2ccc(Cl)cc2)c2c1-c1nocc1CC2,·,-8
Cc1nnsc1C(=O)N1CCCN(c2nc3ccc(Cl)cc3s2)CC1,-3.3,·
O=C(NCCc1ccccc1)C1CCN(c2nc3ccccc3o2)CC1,·,7
CCC(Sc1nc(C)cc(=O)[nH]1)C(=O)Nc1ccc(Cl)cn1 (stereo unspecified),-0.8,13
Cc1cc(-c2nc(-c3ccc(C(C)(C)C)cc3)no2)no1,-2.5,·
Cn1c(CSC2CN(C(c3ccccc3)c3ccccc3)C2)n[nH]c1=S,-2.4,·
CCN(C(=O)CS(=O)(=O)c1cccc2nsnc12)c1ccc(C)c(C)c1,·,5
O=C(CSc1nc2ccccc2c(=O)n1NC(=O)c1ccccc1)NCc1ccccc1,-0.5,7
COc1cc(C(C#N)NCc2ccccc2)cc(OC)c1OC (stereo unspecified),3.6,·
CCC1CCCCN1C(=O)CSc1nc2c(c(=O)n1Cc1ccccc1)SC(C)C2 (stereo unspecified),0.1,4
CCC(C)NC(=O)c1c[nH]c2ccc(S(=O)(=O)N(C)c3cc(C)ccc3C)cc2c1=O (stereo unspecified),0.6,2
CCN1C(=O)C(O)(CC(=O)c2cc(C)ccc2C)c2ccccc21 (stereo unspecified),·,-38
O=C(CSCc1ccccc1Cl)NC1CCCC1,·,9
Cc1ccc(S(=O)(=O)N2CCC(c3nc4cc(C(=O)NCc5ccco5)ccc4n3C3CCCCC3)CC2)cc1,·,6
